# Bioassay records (PubChem)
# HSD17B inh – inhibitors of human HSD17B10 dehydrogenase; recombinant HSD17B10, NADH fluorescence kinetic; many of its hits are not listed in these tables; Potency, µM (series often up to 57.1 µM), for inactives: at the top dose activity change, negative = inhibition, most hits filed as inhibitors; hit rate 7.6% among 75,000; Q99714; AID 893; active = well fitted inhibition curve with a large enough effect; inconclusive = small, poorly fitted or top-dose-only effect; inactive = no such curve, though single readings can be large or run the other way;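 note: the protocol describes HADH2 (HSD17B10) and not the HSD17B4 of the title; nearly all actives have a fitted effect of over 70% in size; most hits overshoot -100% by far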
#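 Activity followed as NADH fluorescence increase (ex 360, em 450 nm) every 30 seconds for 4 min, using final 90 uM beta-hydroxybutyryl CoA and 1 mM NAD+. Recombinant His-tagged enzyme, 20 nM, pH 9.0 Tris buffer, 15 min compound preincubation.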
# An asterisk follows results filed as active; i = inactive; ? = inconclusive; & = joins results of further samples; [ ] = remark or other dose. % is set by controls: 0 for no effect and ±100 for the full control effect; potency is the fitted concentration of half-maximal effect.
SMILES,HSD17B inh
O=C(COC(=O)c1ccccn1)Nc1cc(Cl)ccc1Cl,3.6%
CC(=O)N1C(=O)N(C)C2C1N(C(C)=O)C(=O)N2C (stereo not drawn),-4.3%
CN(C)/C=C/C(=O)c1nnn(C2CCCCC2)c1NC1CCCCC1,-2.1%
Cc1cc(C)nc(SCCS(=O)(=O)Cc2ccccc2)n1,-1.9%
CCc1nnc(NC(=O)c2ccc(OC)cc2OC)s1,-1.6%
CCCCCCCC#Cc1ccccc1/C=N/S(=O)c1ccc(C)cc1 (stereo not drawn),-9.2%[11.4 µM]
O=C(NC1CC2CCC(C1)N2C(=O)NC1CCCCC1)NC12CC3CC(CC(C3)C1)C2 (stereo not drawn),-0.5%
CCOCCCNC(=O)c1ccc(CS(=O)(=O)Cc2ccc(C)cc2)o1,3.5%
O=C(COc1ccc(-c2nnco2)cc1)NC1CCCc2ccccc21 (stereo not drawn),9.9%
Cc1nc(C)c(C(=O)Nc2ccc(C)c(F)c2)o1,-9.8%
CN1CCN(CN2C(=O)C3C4C=CC(C3C2=O)C2C3C(=O)N(CN5CCN(C)CC5)C(=O)C3C42)CC1 (stereo not drawn),7.2%[11.4 µM]
COc1ccc(OCCOCC(O)CN2CCOCC2)cc1 (stereo not drawn),-1.6%
CN(C)CCNCCN,4.6%[11.4 µM]
CCc1ccc(NC(=O)CSc2nnc(Cc3cccn3C)n2-c2ccc(OC)cc2)cc1,-4.8%
CCOCc1nnc(NC(=O)COC)s1,-17.9%
Cn1c(SCC(=O)Nc2ccc(N3CCOCC3)cc2)nnc1-c1ccccc1,-4.9%
Cc1ccc2cc(CCNS(=O)(=O)c3ccc(F)cc3)c(=O)[nH]c2c1,-12.7%
CCC1=C(OC(=O)N(CC)CC)N2C(=O)OC(=NCCc3c[nH]c4ccccc34)[C@]2(C)[C@H]2C1=CC[C@H]1C(=O)N(C)C(=O)[C@H]12,-4.7%
CC(C)c1ccc2c(c1)CC[C@H]1[C@](C)(CN)CCC[C@]21C,-13.3%
COc1ccc(CN(C)C2CCCCC2)cc1,11.8%

# Look-ups from the results shown:
# CCOCc1nnc(NC(=O)COC)s1 – HSD17B inh = -17.9%
# COc1ccc(CN(C)C2CCCCC2)cc1 – HSD17B inh = 11.8%
# Cc1cc(C)nc(SCCS(=O)(=O)Cc2ccccc2)n1 – HSD17B inh = -1.9%

# The results go on:
SMILES,HSD17B inh
CCOC(=O)N1CCC(NC(=O)c2ccc(OC)c(CN3CC(=O)N4CCCC4C3=O)c2)CC1 (stereo not drawn),15.4%
CNC(=O)CN(Cc1ccccc1)S(=O)(=O)c1ccccc1,3.6%
CCOC(=O)c1sc(=NC(=O)c2ccc(S(=O)(=O)N3CC(C)OC(C)C3)cc2)n(C)c1C (stereo not drawn),14.9%
Cc1ccc(C(=O)CC2(O)C(=O)N(Cc3ccccc3Cl)c3ccccc32)o1 (stereo not drawn),15.8µM*
CC(=O)Nc1ccc(-c2nc3ccc(Cl)cc3[nH]2)cc1,20µM*
COC(=O)N(/C=C/c1ccc(OC)cc1)CCc1ccc(OC)c(OC)c1,-4.3%[11.4 µM]
Nn1c(SCc2cn3ccsc3n2)nnc1-c1ccncc1,7.2%
c1coc(-c2nnc(SCc3nc4ccccc4[nH]3)o2)c1,-12.1%
NC(=O)N/N=C1\CC[C@H](O)C[C@@H]1CC(=O)O,-3.6%[11.4 µM]
COc1ccc(NC(=O)Cn2nnc(-c3ccccc3N)n2)cc1OC,-1.1%
CCc1ccc(NC2=NCC(=O)N2Cc2ccc3c(c2)OCO3)cc1,4.4%
NC(=O)COC(=O)CCCc1c[nH]c2ccccc12,11.8%
Cc1cc(NC(=O)CSc2nnc(-c3ccc(S(=O)(=O)N4CCCC4)cc3)n2C)no1,-9.7%
Cc1cc(N2CCCCC2)nc(SCc2ccc(C#N)cc2)n1,8.0%
O=C(NCCc1cn2ccccc2n1)c1ccc(Br)o1,-21.3%
CS(=O)(=O)N1CCC2(CC1)CN(Cc1nccs1)C2,6.6%
O=C(CSc1nc2c(c(=O)n1-c1ccc(F)cc1)SCC2)NCC1CCCO1 (stereo not drawn),-4.6%
CCOCCCNC(=O)C(NC(=O)c1ccccn1)c1ccc(C)cc1 (stereo not drawn),2.8%
COc1ccccc1N(CC(=O)NC1CCCCC1)S(C)(=O)=O,4.7%
O=C(NCC1CCCO1)c1c(O)c2cccc3c2n(c1=O)CC3 (stereo not drawn),2.0%
CCn1c(Sc2nc(C)nc3scc(-c4cccs4)c23)n[nH]c1=O,-9.9%
c1ccc2c(N3CCOCC3)nc(-c3ccoc3)nc2c1,-0.5%
COC(=O)[C@@]1(Cc2ccc(OC)cc2)[C@@H]2[C@@H](CC(=O)[C@H]2CC(=O)C(=O)N(C)C)CN1C(=O)c1ccccc1,12.8%
CCOC(=O)N1CCC(NC(=O)c2cc3ccccn3n2)CC1,?
O=c1c(-c2cccc(F)c2)nc2cncnc2n1Cc1ccc(F)cc1,-7.6%
CCC(=O)Nc1sc(C(=O)N2CCCCC2)c(C)c1C#N,3.5%
COC(=O)c1cc(OC)c(OC)cc1NC(=O)c1oc2ccccc2c1C,-8.5%
OC(CN1c2ccccc2Sc2ccccc21)Cn1nnc2ccccc21 (stereo not drawn),-6.7%
CCCNC(=O)NC(C(=O)OC)C12CC3CC(CC(C3)C1)C2 (stereo not drawn),-1.7%
Fc1cnc(N2CCOCC2)nc1N1CCc2ccccc21,26.4%
COc1cc(NC(=O)NCc2ccncc2)cc(OC)c1OC,9.9%
Cc1[nH]nc2c1C(c1ccc(F)cc1)C1=C(CC(C)(C)CC1=O)N2 (stereo not drawn),31.6µM*
Nc1nncn1C(=O)CCCN1C(=O)c2ccccc2C1=O,6.9%
O=S(=O)(Nc1ccn(-c2ccccc2)n1)c1ccc(Br)cc1,-7.1%
CNC[C@H](O)[C@H](O)[C@H](O)[C@H](O)CO,3.3%[25.6 µM]
O=C(O)C1=CCCNC1,6.0%&-12.9%&1.2%
Cc1ccc(S(=O)(=O)NCc2ccc(C(=O)NCCCN3CCN(C)CC3)cc2)cc1,3.1%
CSc1ccc(CN(C)CC(=O)NC(=O)NC(C)(C)C)cc1,6.6%
COc1ccc(C2C(C(=O)Nc3cccc(C)n3)c3ccccc3C(=O)N2C)cc1OC (stereo not drawn),25.1µM*
Cc1ccc(C)c(S(=O)(=O)Nc2ccccc2C(=O)Nc2cc(C)on2)c1,25.1µM*
Cn1c(SCC(N)=O)nnc1-c1ccccc1,2.7%
O=C(O)c1ccc(Cl)c2c1C1C=CCC1C(c1ccccn1)N2 (stereo not drawn),15.8µM*
Cc1ccc(-c2nc(CSCC(=O)N3CCN(C(=O)c4ccco4)CC3)c(C)o2)cc1,1.5%
CCCOc1ccc(CC(CC(=O)O)(C(=O)O)C(=O)O)cc1,2.2%
O=C(NCc1ccncc1)c1cccc(F)c1,3.7%
CCc1cccc(NS(=O)(=O)c2c(C)n[nH]c2C)c1,3.3%
CCn1c(C(O)c2ccccc2)nc2ccccc21 (stereo not drawn),2.3%
O=C(COC(=O)CCC(=O)c1ccc(Cl)cc1)NCC1CCCO1 (stereo not drawn),-1.4%
Cc1ccc(-c2cc(C(=O)NCc3cccs3)no2)cc1,8.1%
Cc1c(C(=O)N2CCCc3ccccc32)oc2ccc(S(=O)(=O)N3CCOCC3)cc12,?
COCCCNC(=O)C1CC(=O)N(c2ccc(C)cc2)C1 (stereo not drawn),i
O=C(NC1CCCCC1)C1CC(=O)N(c2ccc(Cl)cc2)C1 (stereo not drawn),8.4%
O=C(O)c1cc(S(=O)(=O)N2CCCC2)ccc1Br,1.5%
CC(C)CN(C(=O)COC(=O)c1cc2ccccc2oc1=O)C1CCS(=O)(=O)C1 (stereo not drawn),31.6µM*
O=C(c1ccc2ccccc2c1)N1CCN(c2ccccc2)CC1,0.0%
COc1ccc(N2C(=O)c3cccc4cccc(c34)C2=O)nn1,31.6µM*
O=C(CNC(=O)c1cccs1)NCCN1CCN(c2ccccc2F)CC1,5.6%
C=C(C)CN=c1scc(C)n1/N=C/c1ccco1,-5.8%
O=C(O)c1ccc(CNCc2ccccc2)cc1,7.1%[11.4 µM]
O=C(CN(C(=O)CNS(=O)(=O)c1ccccc1)C1CCCC1)NCc1ccco1,4.2%

# 3 entries already listed, ordered by molar mass, ascending:
SMILES,HSD17B inh
O=C(O)c1ccc(CNCc2ccccc2)cc1,7.1%[11.4 µM]
O=C(CNC(=O)c1cccs1)NCCN1CCN(c2ccccc2F)CC1,5.6%
CC(C)CN(C(=O)COC(=O)c1cc2ccccc2oc1=O)C1CCS(=O)(=O)C1 (stereo not drawn),31.6µM*

# Next results follow.
SMILES,HSD17B inh
CCCC(c1nnnn1Cc1ccco1)N1CCN(C(=O)c2ccco2)CC1 (stereo not drawn),-4.9%
Cc1ccccc1NC(=O)CSc1nnnn1C,-1.7%
COc1cccc(OCc2nnc(SCC(=O)OC3CCCCC3)n2C)c1,-2.0%
COC(=O)c1ccc(S(=O)(=O)NCCSc2nnc3c4ccccc4n(C)c3n2)cc1,-8.1%
Cc1nc(Sc2nnnn2-c2ccccc2)c(C#N)c(C)c1C,-16.6%
Clc1ccc(CSc2ncccn2)cc1,-4.9%
O=C(CCN1C(=O)C2CC=C(Cl)CC2C1=O)NCc1ccco1 (stereo not drawn),-2.7%
C=C(C)c1cccc(C(C)(C)NC(=O)NCCCN2CCCC2=O)c1,5.2%
COc1ccccc1-c1noc(-c2ccccc2C(=O)Nc2ccccc2)n1,9.7%
NC(=O)CSc1nnc(-c2cnccn2)n1-c1ccccc1,5.8%
CC(C)Cc1nnc(NC(=O)c2ccncc2)s1,-1.2%
Cc1ccc(C)n1-c1ccc(-n2cnnn2)cc1,1.3%
CC(C)=CCCC(C)CCO (stereo not drawn),-4.4%
Cc1cc(N2CCOCC2)nc2ccc(NC(=O)CCC(=O)N3CCCCC3)cc12,15.8µM*
O=C(O)c1c(-c2c3ccc(=O)cc-3oc3cc(O)ccc23)cc2ccccc2c1-c1ccccc1,2.8%[11.4 µM]
CC(C)CC1NC(=O)C(CCCN)NC(=O)C(C(C)C)NC(=O)C2CCCN2C(=O)C(Cc2ccccc2)NC(=O)C(CC(C)C)NC(=O)C(CCCN)NC(=O)C(C(C)C)NC(=O)C2CCCN2C(=O)C(Cc2ccccc2)NC1=O (stereo not drawn),4.9%
C=CCNC(=O)CCCOc1cccc(C)c1,1.5%
CC(C)Sc1ncnc2c1oc1ccccc12,1.9%
O=C(Nc1ccccc1)c1cc([N+](=O)[O-])ccc1Cl,-11.0%
CC12CS(=O)(=O)CC1SC(=S)N2c1ccccn1 (stereo not drawn),6.1%

# Four entries from above, set out differently:
mol: Cc1c(C(=O)N2CCCc3ccccc32)oc2ccc(S(=O)(=O)N3CCOCC3)cc12
- HSD17B inh = ?
mol: COCCCNC(=O)C1CC(=O)N(c2ccc(C)cc2)C1 (stereo not drawn)
- HSD17B inh = i
mol: O=C(NC1CCCCC1)C1CC(=O)N(c2ccc(Cl)cc2)C1 (stereo not drawn)
- HSD17B inh = 8.4%
mol: O=C(O)c1cc(S(=O)(=O)N2CCCC2)ccc1Br
- HSD17B inh = 1.5%

# More structures.
SMILES,HSD17B inh
Cc1cc(/C=N/n2cnnc2)c(C)n1-c1cc(Cl)ccc1Cl,-11.7%
Cc1ccccc1-n1c(SCc2c(C)noc2C)nnc1-c1ccncc1,-3.5%
CCCCCCNC(=O)c1c(O)c2ccccc2[nH]c1=O,-0.9%
Cn1c(=S)[nH]c2cccnc21,-5.1%
Cc1cc(C)n(C(=O)CN2C(=O)c3ccccc3C2=O)n1,4.0%
O=c1cc(CSc2nc3cc(Cl)ccc3o2)nc2sccn12,-26.6%
O=C(NCCn1ccc2ccccc21)C1CCCCC1,31.6µM*
CC(=O)OC1CC2C(C)(C)CCC(=O)[C@@]2(C)C2CC[C@@]3(C)C(c4ccoc4)OC(=O)C4OC43[C@]12C (stereo partly drawn),1.7%
COc1cccc(-c2c(NC(=O)c3ccco3)n(-c3ccc(C)cc3)nc(C)c2=O)c1,-16.4%
CCOC(=O)C(NC(=O)CC)(Nc1ccc(S(=O)(=O)Nc2onc(C)c2C)cc1)C(F)(F)F (stereo not drawn),21.9%
OCCN1CCN(CCCN2c3ccccc3C=Cc3ccccc32)CC1,-3.1%&-5.9%
CN1CCc2c(sc3c2C(=O)NC(c2ccc4c(c2)OCO4)N3)C1 (stereo not drawn),10µM*
O=C(O)CC1C(=O)NCCN1Cc1ccc(F)c(F)c1 (stereo not drawn),2.2%
CC/C=C\CC[C@H](OC(=O)c1ccc(Br)cc1)C1=CCCCC1=O,-3.8%[11.4 µM]
CN1CCN(Cc2nc(N)nc(Nc3ccc4c(c3)OCCO4)n2)CC1,1.8%
COc1ccc(C(=O)NCc2cn3ccccc3n2)cc1,31.6µM*
COc1cc(CN2CCC(C(=O)N3CCCC(C)C3)CC2)cc(Br)c1O (stereo not drawn),6.7%
CCc1nn(CC(=O)N2CCN(Cc3ccc4c(c3)OCO4)CC2)c(=O)c2cc3occc3n12,4.0%
Cc1[nH]n(-c2ccccc2)c(=O)c1/C=N/c1ccccn1,-1.3%
CCOC(=O)c1[nH]c(C)c(C(=O)N(CC)CC)c1C,-4.9%
CCc1nnc(SCc2ccc(CSc3nnc(CC)n3N)cc2)n1N,8.0%
COc1ccccc1C(=O)NCCn1cc(SCC(=O)Nc2cc(C)on2)c2ccccc21,-5.2%
CC(C)(C)C(=O)Cn1c(=N)n(Cc2ccccc2)c2ccccc21,2.9%
CC[n+]1cc(-c2ccccc2)nc(N2CCOCC2)n1,5.8%
CCOC(=O)C1=C(Cn2ccc(C(F)(F)F)n2)NC(=O)NC1c1ccc2c(c1)OCO2 (stereo not drawn),5.6%
CCOC(=O)CC1=CC(C)(CC(=O)OCC)C(C#N)(C#N)C(N)=C1C#N (stereo not drawn),63.1%[activator]
N#Cc1c(-c2ccc(Cl)cc2Cl)nc2n(c1=O)CCS2,?
CN(C)c1ccc(-c2cncnc2NCc2ccccc2)cc1,?
COc1cc2c(cc1OC)C(/C(C#N)=N\O)=NC(C)(C)C2,3.7%

# These rows are one share of the data; count on the stated rates, not on these rows.
